# HSD17B inh: qHTS Assay for Inhibitors of HSD17B4, hydroxysteroid (17-beta) dehydrogenase 4 | recombinant HSD17B10, NADH fluorescence kinetic; many of its hits are not listed in these tables | 3-hydroxyacyl-CoA dehydrogenase type-2 (Homo sapiens), Q99714 | 7.6% of 75,000 active | Potency, µM (titrated, usually from 57.1 µM), for the others: at the highest dose activity change, negative = inhibition, hits mostly inhibitors; active = well fitted inhibition curve with a large enough effect; inconclusive = small, poorly fitted or top-dose-only effect; inactive = no such curve, though single readings can be large or run the other way;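 note: the protocol describes HADH2 (HSD17B10) and not the HSD17B4 of the title; nearly all actives have a fitted effect of over 70% in size; most hits overshoot -100% by far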
#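 Enzyme plus compound, 15 min room temperature; substrate mix added (NAD+ 1 mM, beta-hydroxybutyryl-CoA 90 uM final); plates read kinetically for NADH fluorescence. HADH2 was His-tagged, E. coli-derived, 20 nM.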
# * marks the source's active call; other numbers are inactive results; ? = inconclusive; [ ] = dose if it differs, or a comment. % is set by controls: 0 for no effect and ±100 for the full control effect; potency is the fitted concentration of half-maximal effect. These rows are one share of the data; the hit share may differ from the screen's.
SMILES,HSD17B inh
COc1cc(C)c(N)cc1C(C)C,-12%
CC[C@H]1CN(C)[C@H]2Cc3c([nH]c4ccccc34)C(=O)C[C@H]1[C@H]2C(=O)OC,-4%[11.4 µM]
Fc1ccc(Cn2nnnc2CN2CCc3ccccc3C2)cc1,-15%
CCOC(=O)c1cnn(-c2nc(C)nc3sc4c(c23)CCC4)c1N,7%
CC(C)(O)P(C)(=O)c1ccccc1 (stereo not drawn),2%
Cc1c(S(=O)(=O)O)ccc(N=Nc2c(O)c(C(=O)O)cc3ccccc23)c1Cl,-23%[11.4 µM]
COc1ccccc1C1c2c(oc3ccc(Cl)cc3c2=O)C(=O)N1c1cc(C)on1 (stereo not drawn),3%
CC(=O)[C@H]([C@@H](c1ccccc1)N1CCOCC1)N1CCOCC1,7%[11.4 µM]
O=C(CSc1nc2sc3c(c2c(=O)n1Cc1ccco1)CCC3)N1CCc2ccccc21,-14%
Cn1c(Cn2c(=O)sc3ccccc32)nnc1SCc1ccc(F)cc1,-2%
Cc1ccc(-c2nc(CS(=O)CC(=O)NCCN(CC(C)C)CC(C)C)c(C)o2)cc1 (stereo not drawn),?
N#CCCN(CC#Cc1ccccc1)OCc1ccccc1,-10%[11.4 µM]
COc1ccccc1N=c1oc2c(OC)cccc2cc1C(=O)NCc1ccco1,6%
CCOC(=O)c1[nH]c(C)c(C(=O)NC)c1C,4%
c1ccc(-c2noc(COc3ccc4c(c3)OCO4)n2)cc1,2%
CCCN1C2=C(C(=O)CCC2)C(c2ccc(O)c(Br)c2)C2=C1CCCC2=O,?
CCCc1nc(SCC(=O)N2CCC(Cc3ccccc3)CC2)c2c(=O)n(C)c(=O)n(C)c2n1,5%
COc1ccccc1CN1CC[C@@]2(CCCN(C(C)=O)C2)C1,3%
COc1ccc(CC(=O)OCc2cc3ccccc3[nH]c2=O)cc1,?
CC1=CC(C)(C)N=C(NC#N)N1,7%
c1csc(CNc2ccnc(-c3ccoc3)n2)c1,?
CCc1ccc(NC(=O)C(C)Nc2ccc(S(=O)(=O)NC(C)=O)cc2)cc1 (stereo not drawn),10%
COc1cccc(CNC(=O)C2CCN(S(=O)(=O)c3ccc4c(c3)CCC(=O)N4)CC2)c1,-1%
O=S(=O)(c1ccc(NC2CCCc3ccccc32)nc1)N1CCOCC1 (stereo not drawn),?
c1ccc2c(c1)CC(N1CCCCC1)c1ccccc1N2 (stereo not drawn),-8%
COc1ccccc1C(c1nnnn1CS(=O)(=O)c1ccc(C)cc1)N1CCSCC1 (stereo not drawn),-5%
COc1ccc(S(=O)(=O)Cc2ccc(C(=O)N3CCN(C(=O)c4ccco4)CC3)o2)cc1,1%
Cc1cc(C)n(C(=O)c2ccc(S(=O)(=O)NCC3CCCO3)cc2)n1 (stereo not drawn),6%
CCC(Sc1ncnc2c1nnn2-c1ccc(F)cc1)C(=O)OC (stereo not drawn),-2%
COCCn1c(C)cc(C(=O)COC(=O)CCN2C(=O)c3ccccc3C2=O)c1C,3%
OCc1cc(CO)c(O)c(CCc2ccccc2)n1,25µM*
c1ccc(-c2nnc(N3CCOCC3)nc2-c2ccccc2)cc1,-2%
O=C1CCCc2c1cc(C(=O)Nc1ccc(Cl)cn1)c(=O)n2-c1ccccc1,?
O=C1c2ccccc2C(Nc2cccc(C(F)(F)F)c2)N1Cc1ccco1 (stereo not drawn),-28%
CCN(CC)c1nc(C#N)nc(N(CC)CC)n1,2%
Brc1ccc(-c2nnc(-c3ccc4c(c3)OCO4)o2)o1,-3%
CCOC(=O)c1c(NC(=O)COC)sc(C(C)=O)c1C,3%
CCn1c2ccccc2c2nnc(NCCCO)nc21,-1%[11.4 µM]
CCOC(=O)c1sc2nc3n(c(=O)c2c1C)CCCCC3,0%
COc1cccc(Cn2c(=O)c(-c3cn(C)c4ccccc34)nc3cnc(N4CCOCC4)nc32)c1,-7%
CN1CCN(CCC(=O)Nc2ccc(OCc3ccccc3)cc2)CC1,7%
CC(=O)NCCN=Cc1sc2ccccc2c1O,-1%
CC(=O)c1ccccc1OC(=O)c1ccco1,-13%
Cc1nn(C(=O)c2ccc3c(c2)OCO3)c(N)c1-c1ccccc1,-1%
O=C(CCSCCC(=O)N1CCCC1)N1CCCC1,1%
Cn1cnnc1SCC(=O)N1c2ccccc2-c2c(ssc2=S)C1(C)C,2%
COCC(=O)N1CCC2(CCCN(C(=O)Nc3ccc(OC)cc3)C2)CC1,7%
CN(CC(=O)N1CCN(c2ccc(F)cc2)CC1)S(=O)(=O)c1ccc(F)cc1,-9%
CN1CCCC2(CCN(C(=O)c3cccc(F)c3)CC2)C1,-3%
COc1ccc(Cl)cc1NC(=O)CN1C(=O)CCS(=O)(=O)c2ccccc21,-17%
O=C(c1csnn1)N1CCC2(CC1)CCN(C(c1ccccc1)c1ccccc1)CC2,0%
CCc1nc2ccccc2c(C(=O)OCC(=O)Nc2ccc(S(=O)(=O)N3CCOCC3)cc2)c1C,-17%
COC(=O)[C@@]1(Cc2ccc(OC)cc2)[C@H]2c3cc(C(=O)N(C)C)[nH]c3C[C@H]2CN1C(=O)c1ccccc1,-7%
O=C1CC(=O)CC(c2ccco2)C1,6%
COc1ccc(-c2nnc(SCC(=O)NC(C)c3ccccc3)o2)cc1 (stereo not drawn),-6%
CCOc1ccccc1Cn1c(=O)oc2ccc(C)cc21,-4%
COc1ccc(CC(=O)N2CCN(C(=O)c3ccco3)CC2)cc1,-8%
COCCN=C1OC(=O)N2C(=O)C3=C4C(C[C@H]5C(=O)N(c6ccccc6)C(=O)[C@H]5[C@H]4[C@@]12Cc1ccccc1)[C@H]1C(=O)N(c2ccccc2)C(=O)[C@H]1[C@H]3C (stereo partly drawn),12%
CC1CN(S(=O)(=O)c2cccs2)CC(C)O1 (stereo not drawn),5%
Cc1nnc(SCC(=O)Nc2ccc3c(c2)OCCO3)n1CC1CCCO1 (stereo not drawn),1%

# Going on with the list.
SMILES,HSD17B inh
COc1ccc(Oc2ncc3nc(C)c(=O)n(Cc4ccc(F)cc4)c3n2)cc1,?
COC(=O)Cn1nc(-c2ccccc2)n(-c2ccccc2)c1=S,2%
COc1cc2c(cc1OC)-c1c(oc3cc(O)cc(O)c3c1=O)CO2,?
COc1ccccc1CNc1ccnc(-c2ccc(N(C)C)cc2)n1,4µM*
CC1CCCN(C(=O)CSc2nnc3n(C4CCCC4)c(=O)c4ccccc4n23)C1 (stereo not drawn),-1%
CCOc1ccc(N(C(C)C(=O)NC2CCCCCC2)S(C)(=O)=O)cc1 (stereo not drawn),-8%
Cn1c(=O)[nH]c(=O)c2[nH]c(NCCCN3CCOCC3)nc21,12%
CCC(Sc1nc(=O)cc(N)n1-c1cccc(C)c1)C(=O)Nc1cc(C)on1 (stereo not drawn),7%
CN1CCN(C(=O)N2CCNC2=O)CC1,-6%
Cn1c(=O)c2c(nc(OCC3COC(C)(C)O3)n2Cc2ccccc2F)n(C)c1=O (stereo not drawn),10%
O=C(N1CCOCC1)N1CCC(n2nnc3cc(F)ccc32)CC1,-2%
C/C(NCC(C)(C)CN(C)C)=C(/C#N)C(=O)NCc1ccccc1,4%
c1ccc(-c2ccc(CN3C[C@@H]4C(c5ccccc5)C5(c6cccnc6)CC4(C5)[C@H]3c3ccccc3)cc2)cc1 (stereo partly drawn),4%
Cc1ccc(Sc2oc(/C=N/n3cnnc3)cc2Br)cc1,?
CC(C)c1ccccc1NC(=O)c1cccnc1,-5%
COc1ccccc1N1CCN(Cc2nc(N)nc(Nc3ccc(C)c(Cl)c3)n2)CC1,-6%
CS(=O)(=O)N(Cc1ccccc1)c1ccc(C(=O)NC2CCCCC2O)cc1 (stereo not drawn),-3%
Cc1ccccc1-n1c(C)nnc1SCC(=O)N1CC(=O)Nc2ccccc21,-13%
CCOc1ccccc1NC(=O)CSc1nnc(-c2ccccn2)n1Cc1ccco1,-17%
c1nc(N2CCC3(CC2)OCCO3)c2c3c(sc2n1)CCCC3,-6%
O=C(O)C1CCN(C(=O)c2scc3c2OCCO3)CC1,7%
O=C(CCn1c(=O)c2sccc2n(CC(=O)OCc2ccccc2)c1=O)NCc1ccco1,-9%
c1ccc(C(CN2CCOCC2)c2ccccc2)cc1,-4%
COc1ccc2c(c1)OC/C(=C/c1ccc(O)c(O)c1)C2=O,0%
O=C(CCN1CCN(C/C=C/c2ccccc2)CC1)Nc1ccccc1,-17%
NC(=O)C1CCN(C(=O)c2ccc(C(F)(F)F)cc2)CC1,6%
Clc1ccc(Cn2ncc3c(NCc4cccnc4)ncnc32)cc1,5%
CCC(=O)Nc1cccc(NC(=O)CSc2nnc(C3CC3)n2C)c1,11%
CN(CC(=O)NCCC1=CCCCC1)S(=O)(=O)c1ccc2c(c1)c(=O)n(C)c(=O)n2C,-10%
O=C(c1cccc(F)c1)N1CCC[C@@]2(CCN(c3ccccc3)C2)C1,?
COc1ccccc1-c1nnc(SCC(=O)O)n1C,5%
CN(C)C(=O)Cn1nc(-c2ccccc2)c2ccccc2c1=O,5%
CC(C)Cn1c(CN2CCN(c3ccccc3F)CC2)nc2c1c(=O)[nH]c(=O)n2C,7%
COc1cc(NC(=O)Cc2ccccc2)cc(OC)c1,6%
N#Cc1c(-c2ccc3c(c2)OCO3)csc1N,?
Cc1c(NC(=O)CCc2ccc(S(=O)(=O)N3CCOCC3)cc2)c(=O)n(-c2ccccc2)n1C,-2%
O=c1[nH]cnc2scc(-c3cccs3)c12,7%
O=C(Cc1ccccc1)NCc1nc2ccccc2[nH]1,15%
Cc1nc(NC2=NCN(C3CCCCC3C)CN2)nc2ccccc12 (stereo not drawn),-1%
COC(=O)C1=CNC=C(C(=O)OC)C1c1cccc(OC)c1,-10%
CCOc1ccc(S(=O)(=O)N2CCc3ccccc3C2)cc1,-4%
Cc1ccc(-n2nc(C)c3c2OC(N)=C(C#N)C3c2ccccc2F)cc1 (stereo not drawn),-7%
CCOC(=O)c1oc2ccc(S(=O)(=O)Nc3ccc4c(c3)n(C)c(=O)n4C)cc2c1C,0%
Cc1cc(C)n(S(=O)(=O)c2ccc(C(C)(C)C)cc2)n1,4%
COc1ccccc1-c1ccc(NC2CCCCC2)nn1,-18%
O=C(c1cccc(N2CCCC2=O)c1)N1CCN(c2ccccc2)CC1,-10%
CC(=O)Nc1ccc(S(=O)(=O)NCCNC(=O)c2ccccc2F)cc1,0%
Cc1ccc(Cl)cc1N1CCN(S(=O)(=O)c2cnc[nH]2)CC1,2%
CCN(C(=O)c1cnc2scc(C)n2c1=O)c1ccccc1C,-9%
CCOC(=O)c1[nH]c2ccc(F)cc2c1NC(=O)CN1CCN(C/C=C/c2ccccc2)CC1,16µM*
N#CCCCn1c(-c2ccccc2)noc1=O,-6%
Cc1oc(-c2ccccc2Cl)cc1-c1nn2c(-c3ccco3)nnc2s1,-10%
Cc1nc(Sc2nnnn2C)c2c3c(sc2n1)CCC3,13µM*
Cc1cc(=O)oc2cc(OC(C)C(=O)Nc3nccs3)ccc12 (stereo not drawn),-10%
CC(Sc1ccccc1)C(=O)Nc1cccc(N(C)S(C)(=O)=O)c1 (stereo not drawn),9%
CCOc1ccc(NC(=O)N(C2CCCCCC2)C2CCN(C(C)=O)CC2)cc1,7%
O=C(NC(C(=O)c1ccccc1)N1CCOCC1)c1ccccc1 (stereo not drawn),11%
COc1ccc(-c2nc(C#N)c(N3CCCCCC3)o2)cc1,25µM*
Cc1cc(C)nc(N2CCC(C(=O)N3CCN(c4cc(Cl)ccc4C)CC3)CC2)n1,-9%
Cn1cc(-c2nc3cncnc3n(C3CC3)c2=O)c2ccccc21,2%

# Continuation:
SMILES,HSD17B inh
Cc1cccc(OCc2nnc(N)s2)c1,0%
O=C(CCc1ccccc1)NCc1ccccn1,5%
O=C1c2ccccc2C(=O)N1CCCP(=O)(O)CCc1ccccc1,10%
CCOC(=O)c1cnc(-n2nc(C)cc2C)nc1Nc1cccc(C(=O)O)c1,2%
COc1ccccc1-n1c(CNC(=O)c2ccco2)nnc1SCC(=O)Nc1cc(C)ccc1C,2%
C[C@@H](C(=O)Nc1ccc2ccccc2c1)[C@@H]1C[C@@]1(C)[C@@H](NC(=O)c1ccccc1)c1ccccc1,-2%
O=C(Nc1ccccc1)N1CCC(C(=O)N2CCN(S(=O)(=O)c3cccc(F)c3)CC2)CC1,7%

# Exported with bars between the fields: 16 of the compounds above
structure | HSD17B inh
N#CCCCn1c(-c2ccccc2)noc1=O | -6%
Cc1oc(-c2ccccc2Cl)cc1-c1nn2c(-c3ccco3)nnc2s1 | -10%
Cc1nc(Sc2nnnn2C)c2c3c(sc2n1)CCC3 | 13µM*
Cc1cc(=O)oc2cc(OC(C)C(=O)Nc3nccs3)ccc12 (stereo not drawn) | -10%
CC(Sc1ccccc1)C(=O)Nc1cccc(N(C)S(C)(=O)=O)c1 (stereo not drawn) | 9%
CCOc1ccc(NC(=O)N(C2CCCCCC2)C2CCN(C(C)=O)CC2)cc1 | 7%
O=C(NC(C(=O)c1ccccc1)N1CCOCC1)c1ccccc1 (stereo not drawn) | 11%
COc1ccc(-c2nc(C#N)c(N3CCCCCC3)o2)cc1 | 25µM*
Cc1cc(C)nc(N2CCC(C(=O)N3CCN(c4cc(Cl)ccc4C)CC3)CC2)n1 | -9%
Cn1cc(-c2nc3cncnc3n(C3CC3)c2=O)c2ccccc21 | 2%
Cc1cccc(OCc2nnc(N)s2)c1 | 0%
O=C(CCc1ccccc1)NCc1ccccn1 | 5%
O=C1c2ccccc2C(=O)N1CCCP(=O)(O)CCc1ccccc1 | 10%
CCOC(=O)c1cnc(-n2nc(C)cc2C)nc1Nc1cccc(C(=O)O)c1 | 2%
COc1ccccc1-n1c(CNC(=O)c2ccco2)nnc1SCC(=O)Nc1cc(C)ccc1C | 2%
C[C@@H](C(=O)Nc1ccc2ccccc2c1)[C@@H]1C[C@@]1(C)[C@@H](NC(=O)c1ccccc1)c1ccccc1 | -2%

# As entered above.
# CCOC(=O)c1cnc(-n2nc(C)cc2C)nc1Nc1cccc(C(=O)O)c1 in HSD17B inh is listed with 2%
# O=C(CCc1ccccc1)NCc1ccccn1 in HSD17B inh is listed with 5%
